From PubChem BioAssay
gsp ag: activates gsp, the McCune-Albright syndrome mutation. gsp mutant cells, cAMP HTRF, 30 min; control for the full effect not named in the record. Potency, µM (highest dose often 76.9 µM), for inactives: at the top dose activation (cAMP increase), actives largely listed as activators. 340,000 compounds, 0.13% hits; active = well fitted activation curve with a large enough effect; inconclusive = small, poorly fitted or top-dose-only effect, or another doubt; inactive = no such curve, though single readings can be large or run the other way; cell line not stated here;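 note: phosphodiesterase inhibitor Ro 20-1724 added with compounds to block cAMP breakdown; potency is the fitted concentration of half-maximal effect; nearly all actives have a fitted effect of over 60% in size; about a fifth of the inactives were tested at one dose only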
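Cells in DMEM/10% FBS with G418 were pretreated with compounds in DMSO plus […] (300 uM stock) for 30 min at 37C. cAMP was measured by HTRF (cAMP-d2 plus anti-cAMP antibody-K) after 30 min at room temperature.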
Six1-Eya2 blk: Six1/Eya2 interaction inhibition | AlphaScreen GST-Six1/His-Eya2 binding, biochemical; stronger effect = lower value; control for the full effect not named in the record | activity change, % (test concentration not listed) | 360,000 compounds, 0.56% hits | AID 651725; in the data active = activity change below about -65%; inconclusive = about -30% to -65%; inactive = above about -30%; note: % is set by controls: 0 for no effect and ±100 for the full control effect
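Homogeneous AlphaScreen proximity assay pairing GST-Six1 with His-tagged Eya2 (added as 5X mix: 250 nM and 500 nM) in 50 mM Tris pH 8.0, 300 mM NaCl, 1 mM TCEP. Glutathione donor and nickel acceptor beads; 1 h, 37 °C, dark.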
D2 agonist: agonists of human D2 dopamine receptor (beta-arrestin); P14416; DiscoveRx PathHunter D2 beta-arrestin, luminescence, 90 min; 100% = 57 uM dopamine signal; activation, % (test concentration not listed); 360,000 compounds, 0.084% hits; AID 624465; in the data active = activation above about 40%; inconclusive = about 15% to 40%; inactive = below about 15%; note: compound concentration not given in the record; the text of the record calls up to 30% inactive
Target sequence (P14416 whole entry, looked up): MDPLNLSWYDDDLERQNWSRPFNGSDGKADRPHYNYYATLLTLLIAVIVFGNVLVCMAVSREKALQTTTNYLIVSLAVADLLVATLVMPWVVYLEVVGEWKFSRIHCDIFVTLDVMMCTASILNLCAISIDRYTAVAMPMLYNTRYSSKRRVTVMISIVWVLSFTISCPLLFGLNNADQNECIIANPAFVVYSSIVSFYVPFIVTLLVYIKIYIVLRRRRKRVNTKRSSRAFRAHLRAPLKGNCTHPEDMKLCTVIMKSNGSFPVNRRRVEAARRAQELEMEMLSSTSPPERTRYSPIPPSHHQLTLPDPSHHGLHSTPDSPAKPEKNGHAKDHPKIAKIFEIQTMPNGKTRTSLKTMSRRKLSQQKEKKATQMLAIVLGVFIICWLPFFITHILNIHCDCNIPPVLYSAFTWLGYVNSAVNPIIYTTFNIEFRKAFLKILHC
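Agonist mode: compounds alone added to overnight-plated D2 PathHunter cells for 90 min at 37 C, with 57 uM final dopamine (EC100) defining full response. Beta-arrestin recruitment detected by chemiluminescent reagent, read after 1 h at ambient temperature.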
CtBP-E1A inh: CtBP/E1A binding inhibition; AlphaScreen GST-E1A/His-CtBP binding, 1536-well; stronger effect = lower value; control for the full effect not named in the record; activity change, % (test concentration not listed); 340,000 compounds, 0.49% hits; in the data active means activity change below about -65%; inconclusive means about -30% to -65%; inactive means above about -30%; note: % is set by controls: 0 for no effect and ±100 for the full control effect
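Protein mix (5X: 125 nM each GST-E1A, His-CtBP) was incubated with pinned compound 2 h at 37 deg C in dark, in 50 mM Tris pH 8.0 buffer with 300 mM NaCl. Glutathione donor and nickel acceptor beads followed; AlphaScreen signal read after 1 h.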
D2 PAM: positive allosteric modulators of human D2 dopamine receptor. P14416. DiscoveRx D2 beta-arrestin cells, luminescence, 90 min; 100% = 57 uM dopamine signal. potentiation, % (test concentration not listed). 360,000 compounds, 0.23% hits; active = potentiation of 50% or more; inconclusive = 30% to 50%; inactive = 30% or less;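 note: compound concentration not given in the record; tested on top of an EC20 dose of dopamine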
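PathHunter beta-arrestin assay in DiscoveRx D2 cells. Compounds were added with an EC20 of dopamine (50 nM final) for 90 min at 37 deg C. Luminescence was read 1 h after detection reagent, with 57 uM dopamine as the EC100 control.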
gsp antag: antagonizes gsp, the McCune-Albright syndrome mutation | gsp-mutant cells, cAMP HTRF, 30 min; control for the full effect not named in the record | Potency, µM (titrated, usually from 76.9 µM), without a hit: at the top dose activity change, negative = inhibition, most hits filed as inhibitors | 340,000 compounds, 0.4% hits | AID 624288; active = falling curve of any shape with a large fitted effect; inconclusive = falling curve, mostly with a smaller effect; inactive = flat or rising curve; cell line not stated here;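 note: intracellular cAMP measured with PDE inhibitor Ro 20-1724 present during compound exposure; potency is the fitted concentration of half-maximal effect; % is set by controls: 0 for no effect and ±100 for the full control effect; nearly all actives have a fitted effect of over 65% in size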
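Cells, 2000/well, grown 16–24 h in DMEM 10% FBS with 0.5 mg/ml G418, then compounds plus […] (300 uM addition stock), 30 min at 37C. cAMP read by HTRF (cAMP-d2 and anti-cAMP antibody-K in lysis buffer) after 30 min RT.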
Numbers without * were called inactive; ? = inconclusive; · = not tested or not shown; [ ] = another dose, or the depositor's remark.

gsp ag,Six1-Eya2 blk,D2 agonist,CtBP-E1A inh,D2 PAM,gsp antag,molecule
-39%[inhibitor],-1,-9.5,3,-34,14%,Cc1ccc(NC(=S)NNc2ncc(C(F)(F)F)cc2Cl)c(C)c1
4%,2,-1.3,-20,-15,5%,Cc1cnc(NC(=O)c2ccc(Cl)nc2)s1
17%,3,-4.3,0,1,0%,CCN1N=C(C)C=C(c2ccccc2)n2c1nc1ccccc12
-30%[inhibitor],9,-4.3,5,-6,-11%,CCOc1ccc(C(=O)CSCCC(=O)O)cc1
1%[15.4 µM],4,-3.5,2,-9,9%,Cn1c(=O)oc2cc(S(=O)(=O)NCc3cccnc3)ccc21
-32%,1,-3.0,5,-4,4%,COc1ccc(/C=N/n2cnnc2)cc1COc1ccccn1
·,2,5.8,4,-19,5%,COC(=O)CCC(=O)OC1(C)C(=O)C=C2C=C(C3CC3)N(CCCCO)C=C2C1=O (configuration not stated)
-6%,-2,-0.6,1,5,7%,CN=C(C)c1c(O)c2ccccc2oc1=O
-3%,-72*,2.9,-85*,-2,-16%,COc1ccc(N/C=C/c2nc(SC)nnc2C)cc1
-26%,0,-1.6,-3,-1,16%,CC(=O)Nc1nc(N)n(-c2ccccc2)n1
-1%,-2,4.5,-2,2,-11%,C[C@@]12C(=O)N(c3cccc(F)c3)C(=O)N1[C@@H]1c3ccccc3OC[C@@H]1[C@H]2c1ccccc1
-2%,-1,2.0,-1,-11,9%,Cc1cccc(NC(=S)Nc2ccc(Br)cc2)c1
·,3,-1.7,2,-12,·,CC(=O)NC(c1ccc(F)c(F)c1)c1nc(-c2ccc(F)c(Cl)c2)cs1 (configuration not stated)
?,5,9.1,3,0,15%,COc1ccc(F)cc1S(=O)(=O)NCC(=O)NCc1cc(=O)n(C)c(=O)n1C
-4%,-12,-5.4,·,-6,4%,O=C(NCCN1CCN(c2ccccc2)CC1)Nc1ccccc1Cl
11%[15.4 µM],3,-17,19,3,-3%,CSc1ncccc1C(=O)N1CCN(S(=O)(=O)c2ccc(C)cc2)CC1
9%,4,-2.8,-1,-18,-17%,Cc1ccc(-n2nc3c(=O)n(CCCC(=O)NCc4ccco4)nc(C)c3c2C)cc1
18%[15.4 µM],3,3.5,1,-21,-14%,COc1ccc(CN2C(=O)c3ccccc3C2=O)cc1C(=O)Nc1ccc(C)cc1C
-41%,1,3.4,3,-6,-21%,CCCCNc1c(N)n(CC(C)C)c(=O)[nH]c1=O
-122%[inhibitor],0,-0.5,·,-15,5%,CCCN1CCC(NCC(C)c2ccccc2)CC1 (configuration not stated)
0%,12,-8.0,26,-5,-9%,CN(C)c1ccc(-c2nnn(CC(=O)NCc3ccc4c(c3)OCO4)n2)cc1
-30%[inhibitor],-1,-0.7,4,4,4%,CCC(=O)Nc1ccc(F)c(Cl)c1
-7%[15.4 µM],18,-0.1,9,-11,-1%,CCN(CC)C(=O)Oc1ccc(Cl)c2cccnc12
-23%,3,4.1,·,-2,5%,Cc1ccc(C(=O)N/C(=C/c2ccc(F)cc2)C(=O)NCc2ccncc2)cc1
4%,-19,-3.2,-12,-2,8%,COc1ccccc1C(O)P(=O)(OCC(C)C)c1ccc(N(C)C)cc1 (configuration not stated)
-4%[15.4 µM],-4,-5.2,-10,-11,11%,COc1cccc(C(=O)NCCS(=O)(=O)NCc2cccnc2)c1
19%,-4,-2.2,-3,7,-10%,Fc1ccc2nc(Nc3nc4c(F)cc(F)cc4s3)sc2c1
5%,2,6.1,-9,-1,10%,CSCC[C@H](NC(=O)c1ccc2c(c1)OCO2)c1nnc2ccccn12
1%,6,-2.3,15,-12,-3%,COc1ccc(-c2ccc(-c3noc(-c4ccccc4)n3)c(OC)n2)cc1
-19%,?,0.7,?,-22,-1%,COc1ccc(N2CCN(Cc3ccc(Br)s3)CC2)cc1
-20%,-1,-4.0,0,-3,-12%,O=C(Oc1cc(-c2ccccc2)no1)c1ccc(F)cc1
?,-6,-3.8,-12,-2,10%,O=[N+]([O-])c1cccnc1NCc1cccs1
11%,3,0.8,0,-3,-4%,COCCn1c(SCC(=O)OCc2ccccc2)nc2c1c(=O)[nH]c(=O)n2C
0%[15.4 µM],3,-2.0,1,1,-7%,COc1ccc(C(=O)c2nccc3ccccc23)cc1
-12%,0,5.3,3,-2,-1%,CCN1CCN(C(=O)CS(=O)(=O)Cc2nc(-c3ccc(C)cc3)oc2C)CC1
15%,-3,-5.8,-3,-11,-22%,CCOC(=O)C1=C(C)N=C2SCCC(=O)N2C1c1ccc(C(=O)OC)cc1 (configuration not stated)
10%[15.4 µM],2,-0.6,1,-24,-16%,O=C(CN1CCC(NC(=O)c2cccc(F)c2)CC1)Nc1ccc(Br)cc1
16%,-8,0.1,-1,2,-2%,COc1ccccc1N1CCN(C(=O)c2oc3cc(C)cc(C)c3c2C)CC1
?,-10,1.3,0,-10,-15%,C/C(=N\Nc1cccc2cccnc12)c1ccccc1O
6%,1,-1.3,13,2,3%,COc1ccc(C(=O)N2CCCC(c3ccccc3)=N2)cc1
6%[15.4 µM],5,-0.5,15,-5,3%,O=C(NNS(=O)(=O)c1ccccc1)c1cccs1
-1%,7,1.3,-9,0,·,Cc1nc2c(N)nn(C)c2nc1C
?,-3,-3.0,0,-6,8%,CCCCOC(=S)NC(=O)c1sc2ccccc2c1Cl
-24%,-1,-2.0,-8,-10,·,CS(=O)(=O)c1ccc(-c2cccc(NC(=O)c3ccc4c(c3)OCO4)c2)nn1
29%,13,1.7,0,-26,2%,Cc1cc(C)c(CN2CCC(n3nccc3NC(=O)C3CCCC3)CC2)cc1C
-23%[15.4 µM],-2,0.2,1,-13,12%,COc1cc(CN(C)CC2CCCN(CCc3cccc(C(F)(F)F)c3)C2)ccc1O (configuration not stated)
?,7,-4.5,-10,3,5%,CCc1cc(C(=O)NN2C(=O)NC3(CCCCC3)C2=O)sc1C
-1%,-6,-1.0,7,-9,4%,CN=C1NN=C(c2cc(C)n(-c3c(C)n(C)n(-c4ccccc4)c3=O)c2C)CS1
-35%[inhibitor],4,-1.4,-1,-5,-6%,Cc1cc(OCC(=O)N2CCOCC2)cc2oc(=O)c3ccccc3c12
-16%,2,1.1,3,-6,-6%,CCCCNC(=O)CCn1c(=O)c2ccccc2n(CC(=O)N2CC(C)CC(C)C2)c1=O (configuration not stated)
?,3,-0.4,4,-9,3%,CC(Oc1ccccc1)C(=O)N1CCCc2ccccc21 (configuration not stated)
-9%,3,-1.7,0,-11,2%,Cc1ccc(CN(CCO)CCO)cc1
5%,-2,-0.5,3,-2,13%,CCCN1C2CCCC1CC(NC(=O)C1CCCCC1)C2 (configuration not stated)
28%,-11,0.3,-7,2,-17%,CCC(=O)N1CCC2(CC1)Oc1ccc(Cl)cc1C(=O)C21CC(c2ccc(Cl)cc2)=NO1 (configuration not stated)
0%,1,0.0,2,-15,2%,O=C(COC(=O)C12CC3CC(CC(O)(C3)C1)C2)N1CCN(S(=O)(=O)c2ccc(Cl)cc2)CC1
-77%[inhibitor],-19,0.2,-21,2,-8%,COc1ccccc1-n1c(SCC(=O)Nc2ccc3c(c2)OCO3)nc2c(c1=O)SCC2
-2%,-1,-2.6,23,1,2%,CCN(CC)C(=O)C1CCN(S(=O)(=O)c2cccc3nonc23)CC1
5%,1,1.1,-7,-2,-29%,CC(=O)Nc1cccc(-c2csc(Nc3ccc(C)cn3)n2)c1
-3%[15.4 µM],11,-0.4,-7,3,·,O=S(=O)(Nc1ncccn1)c1ccc(NS(=O)(=O)c2cccc(Cl)c2Cl)cc1
?,1,-0.2,6,-1,1%,O=C(c1cc(S(=O)(=O)NCc2ccco2)ccc1Br)N1CCOCC1

In a second layout: results already given
smiles: CCCCNC(=O)CCn1c(=O)c2ccccc2n(CC(=O)N2CC(C)CC(C)C2)c1=O (configuration not stated)
- gsp ag = -16%
- Six1-Eya2 blk = 2
- D2 agonist = 1.1
- CtBP-E1A inh = 3
- D2 PAM = -6
- gsp antag = -6%

smiles: CC(Oc1ccccc1)C(=O)N1CCCc2ccccc21 (configuration not stated)
- gsp ag = ?
- Six1-Eya2 blk = 3
- D2 agonist = -0.4
- CtBP-E1A inh = 4
- D2 PAM = -9
- gsp antag = 3%

smiles: Cc1ccc(CN(CCO)CCO)cc1
- gsp ag = -9%
- Six1-Eya2 blk = 3
- D2 agonist = -1.7
- CtBP-E1A inh = 0
- D2 PAM = -11
- gsp antag = 2%

smiles: CCCN1C2CCCC1CC(NC(=O)C1CCCCC1)C2 (configuration not stated)
- gsp ag = 5%
- Six1-Eya2 blk = -2
- D2 agonist = -0.5
- CtBP-E1A inh = 3
- D2 PAM = -2
- gsp antag = 13%

Remaining list, next part:
gsp ag,Six1-Eya2 blk,D2 agonist,CtBP-E1A inh,D2 PAM,gsp antag,molecule
-12%,-10,0.2,-9,1,-23%,O=C1c2ccccc2NC(c2ccc(F)cc2)N1Cc1ccco1 (configuration not stated)
2%,-2,-1.7,-11,-13,8%,COC(CNC(=O)c1ccc2c(c1)nc(C)n2-c1ccc(F)c(F)c1)OC
14%,2,1.5,·,-9,13%,CC(C)OCCCNC(=O)C1CCN(S(=O)(=O)N2CCCC2)CC1
?,0,-2.7,4,-5,-15%,CCS(=O)(=O)c1ccc2oc(SCC(=O)NC(C)C3CC4CCC3C4)nc2c1 (configuration not stated)
?,9,-4.8,8,-8,17%,O=C1CC(c2ccccc2)CN1C(=O)c1cccnc1 (configuration not stated)
0%,-19,-1.6,-13,-21,-3%,O=C(Nc1ccc2c(c1)OCO2)c1ccc(COc2ccc3c(c2)CCC3)o1
-17%[15.4 µM],-13,2.4,14,-27,-8%,CCCCNCCOCCOc1ccccc1-c1ccccc1
8%,-7,0.4,-12,1,?,NC(=O)c1sc2nccc(Nc3ccccc3)c2c1N
?,7,-1.4,4,-1,-3%,O=C(c1ccco1)N1CCN(c2ccccc2F)CC1
0%,-2,0.6,5,5,2%,CCOC(=O)c1ccc(NC(=O)c2c(N)n(C)c(=O)[nH]c2=O)cc1
·,-5,-9.1,-8,-29,-23%,O=C1NC[C@@H](c2ccccc2)OC(=O)[C@H](Cc2ccc(F)cc2)C/C=C\C[C@@H]1CC(=O)N(CCO)Cc1ccccc1
·,-2,5.1,2,10,·,CCc1nc2c(OCc3ccc(C(=O)N(C)C)cc3)cccn2c1N(C)C(=O)Nc1ccccc1OC
13%,-1,-0.2,-4,-6,?,COc1ccc(CC(=O)Nc2cc(S(=O)(=O)Nc3ccc(OC)cc3)ccc2OC)cc1
0%[15.4 µM],-8,-3.0,-6,-10,-3%,CCCSc1ncc(Cl)c(C(=O)Nc2ccc(S(=O)(=O)Nc3ncccn3)cc2)n1
-5%[15.4 µM],5,1.1,0,-6,9%,C/C(=N\NC(=O)C1CC1)c1cccs1
15%,1,-2.2,-3,-13,-6%,CCC1(c2ccc(Cl)cc2)NC(=S)N(c2ccc(C)cc2)N1 (configuration not stated)
10%[15.4 µM],-9,1.0,-6,11,-11%,O=C(c1ccc(Cl)c(S(=O)(=O)N2CCCCCC2)c1)N1CCN(c2ccccc2O)CC1

Random draw from the library. About 1.4% of those tested had a hit in this group.
